Screens: PubChem, National Center for Advancing Translational Sciences (NCATS)
ClpP mod: qHTS Assay for Activators of ClpP; ATP-dependent Clp protease proteolytic subunit (Bacillus subtilis (strain 168)), P80244; purified B. subtilis ClpP, FRET peptide cleavage, 20 min; Potency, µM (top dose mostly 57.5 µM), inactives show at the top dose activity change, negative = active; hit rate 1.9% among 340,000; AID 651965, 2013; active = well fitted falling curve with a large enough effect; inconclusive = small, poorly fitted or top-dose-only effect; inactive = no such curve, though single readings can be large or run the other way; also: potency is read from the fitted curve at half-maximal effect; the source files actives as falling curves though it sought activators and does not explain the sign; nearly all actives have a fitted effect of over 65% in size; many hits overshoot -100%
Target sequence (P80244 whole entry, looked up): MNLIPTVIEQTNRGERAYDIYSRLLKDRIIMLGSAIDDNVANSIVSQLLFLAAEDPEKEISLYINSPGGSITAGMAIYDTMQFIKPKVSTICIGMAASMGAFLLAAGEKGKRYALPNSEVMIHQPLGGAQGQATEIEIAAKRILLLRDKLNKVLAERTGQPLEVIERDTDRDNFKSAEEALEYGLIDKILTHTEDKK
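ClpP 10 microg/mL final, pH 8 Tris/KCl buffer with BSA, glycerol, Tween-20; compound pinned in; FRET-FV substrate; RT 20 min; Ex320/Em430; ΔFRET vs ADEP 5.8 microM, DMSO, no enzyme.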
TRPML1 blocker: blocks the human TRPML1 channel | TRPML1-inducible cells, Ca2+ dye fluorescence, FDSS; stronger effect = lower value; inhibition of EC80 agonist-evoked calcium signal | activity change, negative = inhibition, % (no concentration beside the values) | hit rate 0.02% among 390,000 | Q9GZU1; in the data active means activity change below about -50%; inconclusive means about -30% to -50%; inactive means above about -30%;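 also: stimulus is agonist 54-4 at its EC80 concentration; % is scaled to controls: 0 for no effect and ±100 for the full control effect; compound concentration not given in the record; the text of the record puts the active cut at -80%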
Target sequence (Q9GZU1 whole entry, looked up): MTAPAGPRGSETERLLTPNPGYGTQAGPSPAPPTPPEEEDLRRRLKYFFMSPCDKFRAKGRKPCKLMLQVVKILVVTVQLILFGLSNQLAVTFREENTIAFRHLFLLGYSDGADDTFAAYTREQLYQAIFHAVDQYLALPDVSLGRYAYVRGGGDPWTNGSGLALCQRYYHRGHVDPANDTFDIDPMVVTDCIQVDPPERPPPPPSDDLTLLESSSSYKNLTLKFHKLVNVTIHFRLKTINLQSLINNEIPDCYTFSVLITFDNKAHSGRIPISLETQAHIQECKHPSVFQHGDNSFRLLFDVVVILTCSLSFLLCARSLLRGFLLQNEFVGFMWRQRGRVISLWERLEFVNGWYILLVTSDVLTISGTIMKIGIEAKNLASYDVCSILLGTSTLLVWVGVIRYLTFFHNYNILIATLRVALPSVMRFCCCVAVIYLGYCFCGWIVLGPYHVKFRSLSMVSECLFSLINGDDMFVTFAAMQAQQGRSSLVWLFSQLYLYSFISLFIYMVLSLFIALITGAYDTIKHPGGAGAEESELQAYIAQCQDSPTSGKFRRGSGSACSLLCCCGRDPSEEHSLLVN
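Tet-induced TRPML1-DL cells loaded with Ca8 no-wash calcium dye were read kinetically on FDSS. Compound addition was followed by EC80 agonist 54-4 (4 uM final); inhibition was read over 110 s.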
Starred values were filed as active, the others as inactive; ? = inconclusive. An excerpt, so the mix of outcomes need not match the whole.

Order of values – TRPML1 blocker, ClpP mod
Cc1cccc(CCNC(=O)c2ccc3c(c2)nc2n3CCCCC2)c1
 : 10, -0.4%
Cc1cc(Nc2cccc(Cl)c2C)n2nc(Cc3ccccc3)nc2n1
 : 0, -0.6%
Cc1ccc2c(c1)Cc1c(nc(-c3ccc(Cl)cc3)nc1SCC(=O)N1CCCCC1)O2
 : 9, -5.5%
Cc1cc(C)c(NC(=O)Cn2c(=O)n(CCC(=O)NCc3ccc4c(c3)OCO4)c(=O)c3ccccc32)c(C)c1
 : -3, -2.9%
CCCCOc1ccc(C2=NC(c3ccncc3)=Nc3ccc(Br)cc3N2)cc1
 : -2, 1.1%
CC(C)c1ccc(NC(=O)c2cc3c(s2)-c2ccccc2SC3)cc1
 : -15, -23%
CCn1cc(C(=O)OCC(=O)Nc2cc(C)cc(C)c2)c(=O)c2ccc(C)nc21
 : 6, 2.3%
COCCN(CCOC)Cc1cc(=O)oc2ccccc12
 : 18, -4.5%
Cc1ccccc1C(=O)N1CCN(CCc2ccccn2)CC1
 : 26, -0.6%
Cn1c(=O)n(-c2ccc(Br)cc2F)c(=O)c2sc3ccccc3c21
 : 13, -18%
Cc1ccc(CN(C(=O)c2ccc([N+](=O)[O-])cc2)c2ccccn2)cc1
 : 22, -0.5%
COc1cccc(C(=O)c2cn(CC(=O)Nc3ccc4c(c3)OCCO4)c3nc(C)ccc3c2=O)c1
 : 33, 0.9%
CCc1ccc(NC(=O)CSc2nc3ccccc3nc2Cc2ccccc2OC)cc1
 : -17, 2.3%
Cc1cc(C)cc(NC(=O)CSc2nc(-c3ccccc3)c3cc(F)ccc3n2)c1
 : 12, -0.2%
CCc1ccccc1NC(=O)Cn1nnc(-c2nc(-c3ccc(C)cc3)no2)c1N
 : 10, -2.5%
COc1ccc(N(C(=O)c2ccccc2)S(=O)(=O)c2ccc3c(c2)n(C)c(=O)n3C)cc1
 : 4, -1.7%
COc1ccc(OC)c(NC(=O)CSc2cn(CC(=O)N3CCCCCC3)c3ccccc23)c1
 : -13, -1.1%
CC(C)c1ccc(S(=O)(=O)c2cnc(SCC(=O)Nc3cccc(C(F)(F)F)c3)nc2N)cc1
 : 12, -10%
Cc1cccc(N2CCN(C(=O)c3cccn3-c3nnc(N4CCCCC4)s3)CC2)c1C
 : 2, -4.2%
COc1cc(C(O)c2nc(/C=C/c3ccc(C(F)(F)F)cc3)cs2)ccc1F (stereo not drawn)
 : -26, -0.5%
CC(=O)c1ccc(NC(=O)CSc2nnc(-c3ccncc3)n2-c2ccccc2)cc1
 : 0, 0.5%
Cc1cc(C)cc(S(=O)(=O)c2cn(C)c3cc(N4CCCC4)c(F)cc3c2=O)c1
 : 9, -26%
O=C(O)c1ccc(CSc2nc3cccnc3n2Cc2cccc(F)c2)cc1
 : 4, 32µM*
Cc1noc2ncnc(N3CCN(c4cccc(C(F)(F)F)c4)CC3)c12
 : 4, -1.1%
Cc1cc2oc(C(=O)Nc3ccc(S(=O)(=O)N(C)c4ccccc4)cc3)cc(=O)c2cc1C
 : 1, -1.1%
CCOc1ccccc1-n1cc2c(c1-c1ccc(OC)cc1)c(=O)n(C)c(=O)n2C
 : -4, -22%
Cc1ccc(C(=O)NCCc2csc(-c3cccc(F)c3)n2)cc1C
 : -3, -7.9%
CCOc1ccc(CNC(=O)c2ccc(CSc3nc4ccncc4n3Cc3ccc(F)cc3)cc2)cc1
 : 0, -17%
CCN1C(=O)[C@@H]2[C@@H]3CN(S(=O)(=O)c4ccc(C)cc4)[C@@H](c4ccccc4Cl)[C@@H]3C(=O)C[C@@H]2C1=O
 : -21, 0.5%
Cc1ccc(-c2cc(C(F)(F)F)n3nc(C(=O)NCC45CC6CC(CC(C6)C4)C5)cc3n2)cc1
 : -1, -21%

Next part
Order of values – TRPML1 blocker, ClpP mod
Cc1c(C(=O)N2CCCC2)oc2c1-c1nn(CC(=O)NCc3cccc(Br)c3)cc1CC2
 : 38, 2.6%
Cc1nc2ccn(Cc3ccco3)c(=O)c2cc1C(=O)N1CCN(c2ccccc2F)CC1
 : 6, ?
Cc1ccc(S(=O)(=O)NCC(c2ccc(N(C)C)cc2)N2CCOCC2)cc1 (stereo not drawn)
 : 2, -1.8%
CCOc1ccc(N2CC(NC(=O)c3ccc4c(c3)OCO4)CC2=O)cc1 (stereo not drawn)
 : 2, -3.3%
Cc1c(Cl)cccc1NC(=O)CCS(=O)(=O)c1ccc2c(c1)oc(=O)n2C
 : -30, -2.1%
Cc1ccc(C(=O)c2oc3ccccc3c2NC(=O)c2cc(-c3ccccc3)on2)cc1F
 : -11, -0.8%
Cn1ccc2c(-c3ccc(F)nc3)cc3c(c21)C1CCC3O1 (stereo not drawn)
 : 2, -18%
COc1cccc(OC)c1C(=O)NCCc1sc(-c2cccc(F)c2)nc1C
 : -17, 4.6%
Cc1cc(NC(=O)CN2CCC(C)CC2)nc2c1c(=O)oc1ccccc12
 : -16, -9.0%
Cc1ccc(NC(=O)C2CCN(S(=O)(=O)c3ccc4c(c3)CCCN4C(=O)C3CCC3)CC2)cc1
 : -18, -2.8%
CC1(c2nc3ccccc3[nH]2)CCC(=O)N1Cc1ccc(F)cc1 (stereo not drawn)
 : 7, 2.2%
Cc1ccc(CNC(=O)CN2C(=O)C3(SCC(=O)N3c3ccc(F)cc3)c3ccccc32)cc1 (stereo not drawn)
 : 35, 0.3%
CCOC(=O)c1c(-c2ccc(C)cc2)csc1NC(=O)c1cc(-c2ccc(Cl)cc2)on1
 : -8, -0.8%
CC1=C(C(=O)Nc2cccc(C(F)(F)F)c2)C2(CCCCC2)OC1=O
 : 25, -1.8%
COc1ccc2c(c1)c1c(c(=O)n(-c3ccccc3C)c(=O)n1C)n2C
 : 0, 4.1%
CCOc1ccc(-c2nc(Cn3c(=O)cc(C)c4c(C)nn(-c5ccc(C)cc5)c43)c(C)o2)cc1
 : 9, 1.1%
COc1cc(NC(=O)C2CCN(C(=O)c3sc4nc[nH]c(=O)c4c3C)CC2)cc(OC)c1OC
 : 5, -1.1%
Cc1ccc(NC(=O)c2cccn2-c2nnc(N3CCCCC3)s2)cc1Cl
 : -6, ?
CCCCCOc1ccc(NC(=O)Cn2c(-c3nonc3N)nc3ccccc32)cc1
 : 12, -4.0%
Cc1cc(Nc2ccc(Br)cc2)nc(C)n1
 : 3, -1.1%
O=C(NC1CCCC1)c1ccc(CSc2nc3ccncc3n2Cc2ccccc2F)cc1
 : -5, -21%
CCC(C)NC(=O)c1nn(-c2ccc(C)cc2)c(=O)n(C)c1=O (stereo not drawn)
 : 10, -2.0%
Cc1cn2c(=O)cc(COc3ccc(NC(=O)COc4ccccc4)cc3)nc2s1
 : -14, -2.9%
COc1ccccc1NC(=O)Cn1c(=O)n(-c2cccc(C)c2)c(=O)c2c1c1cc(C)ccc1n2C
 : -11, 4.4%
CC1CN(C(=O)N2CCC(C(=O)NCc3ccccc3F)CC2)c2cc(Cl)ccc2O1 (stereo not drawn)
 : 38, 1.3%
CCC(Oc1ccccc1)C(=O)Nc1cc(-c2ccccc2OC)nn1-c1ccccc1 (stereo not drawn)
 : -21, ?
Cc1nc2cccnc2n1C1CCN(S(=O)(=O)c2ccc(C(C)C)cc2)CC1
 : 47, -6.4%
Cc1nn(C)c2c1c(-c1ccccc1)cc(=O)n2Cc1ccc(F)cc1
 : 29, -9.6%
CC(=O)N1c2c(cc(Br)cc2S(=O)(=O)N2CCN(c3cc(C)ccc3C)CC2)CC1C (stereo not drawn)
 : 22, -2.3%
CCOc1ccc(OCC)c(NC(=O)c2cc(S(=O)(=O)N3CCc4ccccc43)cn2C)c1
 : 16, ?

3 compounds drawn at random from those above:
Order of values – TRPML1 blocker, ClpP mod
Cc1cc(NC(=O)CN2CCC(C)CC2)nc2c1c(=O)oc1ccccc12
 : -16, -9.0%
CCOc1ccc(CNC(=O)c2ccc(CSc3nc4ccncc4n3Cc3ccc(F)cc3)cc2)cc1
 : 0, -17%
CCn1cc(C(=O)OCC(=O)Nc2cc(C)cc(C)c2)c(=O)c2ccc(C)nc21
 : 6, 2.3%

Additional records:
Order of values – TRPML1 blocker, ClpP mod
Cc1nn(-c2cccc(Cl)c2)c2nc(-c3cccnc3)cc(C(F)(F)F)c12
 : 11, -7.2%
Cc1ccc(-n2c(C)cc(/C=C(\C#N)C(=O)Nc3ccc(C)c(C)c3)c2C)cc1
 : -11, 0.4%
Cc1ccc(NC(=O)CN2C(=O)COc3ccc(S(=O)(=O)NC4CCCC4)cc32)c(Cl)c1
 : -16, 0.0%
Cc1cc(Br)cn2c(Cc3ccccc3)c(-c3ccco3)nc12
 : 2, -6.2%
Cc1ccc(NC(=O)[C@H](CSCc2ccccc2)N2Cc3ccccc3C2=O)cc1
 : 9, 0.7%
CCc1ccc2c(c1)c(=O)c(S(=O)(=O)c1ccccc1)cn2CC(=O)Nc1ccc(OC)cc1
 : 2, -4.3%
CCOC(=O)Cn1c(=O)n(-c2ccccc2OC)c2nc(-c3ccccc3)nc(C(N)=O)c21
 : -12, ?
CC1=C(C(=O)Nc2ccc(C)cc2C)C(c2ccc(O)cc2)n2nnnc2N1 (stereo not drawn)
 : -7, -7.9%
COc1cccc(N2CC(NC(=O)c3ccco3)CC2=O)c1 (stereo not drawn)
 : 53, -1.2%
Cc1ccc(-n2cc(-c3ccccc3)nc2S(=O)(=O)CC(=O)Nc2ccc(F)cc2)cc1
 : -29, -1.7%
Cc1ccc(C)c(OCCOCCn2c(-c3ccc(Br)cc3)nc3ccccc3c2=O)c1C
 : -1, -0.8%
N#Cc1cc2c(=O)n3ccccc3nc2n(-c2nnc(SCc3ccccc3Cl)s2)c1=O
 : 33, 4.7%
COc1cccc(CNC(=O)CCc2c(C)nc3c4c(C)cc(C)nc4nn3c2C)c1
 : -2, 4.8%
CCCCN(CC)C(=O)c1nn(-c2ccc(OC)cc2)c(=O)c2c1c1ccccc1n2C
 : 24, -16%
CCOC(=O)C1CCN(C(=O)Cn2ncc3c4ccccc4n(Cc4ccccc4)c3c2=O)CC1
 : 8, 4.5%
Cc1cc(O)c(C(c2ccc(Cl)cc2)N2CCN(c3ccccc3)CC2)c(=O)n1Cc1ccco1 (stereo not drawn)
 : 10, 0.2%
COc1ccc(/C=C/C(=O)Nc2sc3c(c2C(N)=O)CCC(C)C3)cc1OC (stereo not drawn)
 : -26, -0.9%
CC(=O)Nc1ccc(S(=O)(=O)N2CCN(c3ccc(C)c(C)c3)CC2)cc1
 : 12, 0.0%
CC(C)Cn1c(=O)c2ccccc2n2c(CCC(=O)N3CCN(c4ccccc4)CC3)nnc12
 : -9, -1.3%
CCOC(=O)c1c(C)[nH]c(CCC(=O)Nc2cc(Cl)ccc2OC)c1C
 : 8, 0.6%
Cc1nn(C)c2c1c(-c1ccccc1)cc(=O)n2Cc1ccc(Cl)cc1
 : 58, ?
CSc1nc2sc3c(c2c(=O)n1-c1ccccc1C)CCCC3
 : -5, -0.7%
COc1cc(NS(=O)(=O)c2cc3[nH]c(=O)[nH]c3cc2C)cc(OC)c1OC
 : 23, 1.2%
COc1ccc(CNC(=O)c2ccc3c(c2)N(Cc2ccccc2F)C(=O)c2ccccc2S3=O)cc1 (stereo not drawn)
 : 21, -2.0%
CCOc1ccc(Nc2oc(-c3ccc(COc4ccc(OC)cc4)o3)nc2C#N)cc1
 : 7, 95%
COc1ccc(C(=O)Nc2ccc3c(c2)N(C)C(=O)c2ccccc2S3)cc1OC
 : 19, -13%
O=C(NC1CCCC1)c1ccc(CSc2nc3cccnc3n2Cc2ccc(F)cc2)cc1
 : -1, ?
Cc1oc(-c2ccccc2Cl)nc1CSc1nncn2c1cc1occc12
 : 13, -1.5%
CCCCNC(=O)C1(C)CCN1C(=O)c1ccc(F)cc1Cl (stereo not drawn)
 : 0, -2.4%
COc1cc(NC(=O)CCn2nc(C)c(S(=O)(=O)N3CCCCC3)c2C)cc(OC)c1OC
 : 4, 1.0%

Next part
Order of values – TRPML1 blocker, ClpP mod
CC(=O)c1sc(NC(=O)c2c(-c3ccccc3)c(-c3ccccc3)nn(C)c2=O)nc1C
 : -19, 0.0%
CS(=O)(=O)/C(C#N)=C/c1cccn1S(=O)(=O)c1cccc2ccccc12
 : 4, 0.4%
CCCNC(=O)CCSc1nc(-c2ccc3c(c2)OCO3)cc(C(F)(F)F)n1
 : 11, 3.7%
COc1ccc(/C=C/C(=O)Nc2sc3c(c2C(N)=O)CCCC3)cc1
 : -1, 4.2%
COc1ccc(Br)cc1CNC(=O)c1ccc2nc(C(C)C)oc2c1
 : 38, 5.2%
Cc1nc2ccn(Cc3cccs3)c(=O)c2cc1C(=O)NCc1ccccc1
 : -11, 4.3%
Cn1c(=O)c2c(nc(NCCc3ccccc3)n2Cc2ccccc2Br)n(C)c1=O
 : 27, -2.4%
Cn1c(=O)c2cc(S(=O)(=O)NC(Cc3ccccc3)C(=O)Nc3ccc(F)cc3)ccc2n(C)c1=O (stereo not drawn)
 : 32, -2.0%
Cc1c(C(=O)NCc2ccc(F)cc2)oc2ccc(S(=O)(=O)N3CCCCC3)cc12
 : 1, -5.5%

Two entries from above in a different format:
structure,TRPML1 blocker,ClpP mod
CC(=O)c1sc(NC(=O)c2c(-c3ccccc3)c(-c3ccccc3)nn(C)c2=O)nc1C,-19,0.0%
COc1ccc(/C=C/C(=O)Nc2sc3c(c2C(N)=O)CCCC3)cc1,-1,4.2%
